Screening results from PubChem.
HIV TAR-Tat – HIV-1 TAR-Tat binding disruption | HIV-1 TAR RNA, Tat peptide displacement FRET; active compounds read high | z-score (no concentration beside the values) | actives 0.6% (n = 100,000);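 further: score is relative to mean and SD of negative controls; some compounds called inactive have numbers as strong as hits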
CDC25B-CDK2 inh – human CDC25B-CDK2/CyclinA binding inhibition | P30305+P24941 | HTRF CDC25B-CDK2/CyclinA binding, anti-His/anti-Flag; active compounds read high | z-score (test concentration not listed) | actives 0.72% (n = 94,000) | AID 1259370;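 further: score is relative to mean and SD of negative controls; strong numbers were not always called active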
Active calls of the source: *; nt = not tested or not shown.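 How the source made its calls: active means z-score from 3 up in half or more of its runs; inactive means the rest.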

canonical_smiles,HIV TAR-Tat,CDC25B-CDK2 inh
c1ccc2c(c1)CCCN2c1ncnc2c1nc1n2CCCCC1,-0.39,nt
CCOC(=O)c1cc2c(=O)oc3ccc(C)cc3c2n1C,1.29,-2.68
CN1C(=O)Cc2cc(S(=O)(=O)N3CCC4(CC3)Nc3ccccc3-n3cccc34)ccc21,1.43,nt
Cn1nc(C(=O)NC2CCCCC2)c2c1-c1ccccc1SC2,0.34,0.06
O=C(c1cnn(-c2ccc(F)cc2)c1-n1cccc1)N1CCc2ccccc2C1,1.21,nt
CCN(CCN(C)C)S(=O)(=O)c1ccc2c(c1)NC(=O)CS2,1.55,nt
C=CCn1c(CCN2C(=O)c3cccc4cccc(c34)C2=O)n[nH]c1=S,nt,-1.46
COc1ccc(C(N)=NC#N)cc1,nt,-0.86
O=C(Nc1nnc(SCc2ccc(F)cc2)s1)Nc1ccc(Cl)cc1Cl,nt,-2.71
Cn1c(C(=O)O)c(CC(=O)Nc2ccc(F)cc2F)c2ccccc21,nt,1.44
O=C(NC(=O)N1CCOCC1)c1ccc([N+](=O)[O-])s1,nt,-0.16
Cc1ccc(-c2cc(C(=O)Nc3sc4c(c3C(=O)NCc3ccco3)CCC4)no2)cc1F,0.13,-0.29
Cc1cc(C)c(CN2C(=O)CSc3ccc(S(=O)(=O)N4CCOCC4)cc32)c(C)c1,-2.34,nt
O=C(Nc1ccccc1N1CCCCC1)c1ccco1,nt,-1.88
COC(=O)C1=C(C)NC(=O)NC1c1ccccc1 (configuration not stated),nt,-0.56
CCOC(=O)c1cnc2nc(COc3ccccc3)[nH]n2c1=O,2.17,0.15
Cc1cc(C(=O)CC#N)c(C(F)(F)F)o1,nt,-2.11
CCOc1ccc(/C(O)=C2/C(=O)C(=O)N(CCCN(C)C)C23C(=O)N(C)c2ccccc23)cc1 (configuration not stated),-0.5,-1.78
CS/C(N)=N/N=C/c1cccs1,nt,-1.3
COc1cccc(-c2noc(-c3ccccc3Br)n2)c1,1.65,-0.79
COc1ccc2c(c1)[nH]c1c(=O)n(CCCN3CCN(C4CCCCC4)CC3)cnc12,0.01,-2.22
CCC(C(=O)NC(C)CCc1ccccc1)n1nc(C)n2c(cc3sccc32)c1=O (configuration not stated),-0.68,-0.7
CCOC(=O)c1c(C)oc2ncnc(Nc3ccc(OC)c(OC)c3)c12,0.05,nt
COC(=O)Cc1nc(Nc2ccc(F)cc2)c2c(C)c(C)sc2n1,1.26,nt
NC(=O)C1CCN(Cn2cnc3ccccc32)CC1,nt,-1.94
CC(NC(=O)C1OC2OC(C)(C)OC2C2OC(C)(C)OC12)C(=O)Nc1ccccc1 (configuration not stated),nt,-1.56
Cc1ccc(-n2cccc2/C=C(\C#N)S(C)(=O)=O)c([N+](=O)[O-])c1,nt,-1.11
CCOC(=O)C1CCC(CNC(=O)N2CCC3(CC2)Nc2cc(F)ccc2-n2cccc23)CC1 (configuration not stated),-0.23,nt
CCCS(=O)(=O)c1c(S(=O)(=O)CCC)c2c(N)cccn2c1C(=O)c1ccccc1,-13.2,-1.19
Clc1cncc(Oc2ccc(-n3cccc3)cn2)c1,nt,-0.73

One compound at a time (already shown). Values in the order: HIV TAR-Tat | CDC25B-CDK2 inh
`COc1ccc2c(c1)[nH]c1c(=O)n(CCCN3CCN(C4CCCCC4)CC3)cnc12` reads 0.01 | -2.22
`Cc1ccc(-n2cccc2/C=C(\C#N)S(C)(=O)=O)c([N+](=O)[O-])c1` reads nt | -1.11
`Clc1cncc(Oc2ccc(-n3cccc3)cn2)c1` reads nt | -0.73
`CCOC(=O)c1c(C)oc2ncnc(Nc3ccc(OC)c(OC)c3)c12` reads 0.05 | nt
`CCOC(=O)C1CCC(CNC(=O)N2CCC3(CC2)Nc2cc(F)ccc2-n2cccc23)CC1` (configuration not stated) reads -0.23 | nt

(more compounds)
canonical_smiles,HIV TAR-Tat,CDC25B-CDK2 inh
CC(=O)N1c2ccc(S(=O)(=O)N3CCCC3)cc2CC1C(=O)NCCN1CCN(C)CC1 (configuration not stated),0.24,nt
CC1(C)CC(=O)C2=C(C1)Nc1ccccc1N(C(=O)CCC(=O)O)C2c1ccco1 (configuration not stated),1.09,nt
CCOCCCNc1nc2c(S(=O)(=O)c3cc(C)ccc3C)nnn2c2ccccc12,-0.74,-4.73
CCOc1cc(C2C(C(=O)OCCc3ccccc3)=C(C)NC3=C2C(=O)CCC3)cc(Cl)c1O (configuration not stated),0.46,0.18
Cn1c(=O)c2c(nc(NCCO)n2Cc2ccccc2)n(C)c1=O,2.2,-0.63
CC(C)(C)c1ccc(C(=O)NC(=S)NCc2ccco2)cc1,nt,0.35
CCOCCCNS(=O)(=O)c1c(C)nc2scc(C)n2c1=O,0.66,-2.01
CCN1C(C(=O)OC)=C(OC(=O)c2ccc(C)cc2)c2ccccc2S1(=O)=O,0.14,-0.83
O=C(COc1ccc(Cl)cc1)Nc1ccccc1OCc1cc(=O)n2ccccc2n1,0.4,nt
O=C(NCCN(Cc1ccco1)C1CCCC1)c1ccc2c(=O)n3c(nc2c1)CCCCC3,-0.29,-0.63
CC1CCC(NS(=O)(=O)c2ccc3c(c2)c(=O)n(CC(=O)N2CCCC2)c(=O)n3C)CC1 (configuration not stated),0.28,nt
CCOC(=O)C(NS(=O)(=O)c1ccc(OC(F)(F)F)cc1)C(C)C (configuration not stated),nt,-1.71
Cc1cccc(S(=O)(=O)Nc2cc(-c3cn4cccc(C)c4n3)ccc2C)c1,-0.28,-0.95
CN(C)CCc1c[nH]c2ccc(Cn3cncn3)cc12,-1.09,-1.11
c1ccc(CCCN2CCN(C3CCCCCC3)CC2)cc1,nt,-0.93
O=C(O)CCc1n[nH]c(=O)[nH]c1=O,nt,0.33
CCC1CCC2(CC1)SCC(=O)N2c1ccc(F)cc1 (configuration not stated),nt,-0.08
O=C1CN(S(=O)(=O)c2ccc(CN3C(=O)c4cccnc4C3=O)s2)c2ccccc2N1,1.43,nt
CNC(=O)c1ccccc1Sc1ccccc1C(=O)NC,nt,-2.47
O=C1c2oc3ccc(Cl)cc3c(=O)c2C(c2ccc(Cl)cc2)N1CCCN1CCOCC1 (configuration not stated),0.89,-1.94

Laid out differently: results already given
CN(C)CCc1c[nH]c2ccc(Cn3cncn3)cc12
- HIV TAR-Tat: -1.09
- CDC25B-CDK2 inh: -1.11

O=C1c2oc3ccc(Cl)cc3c(=O)c2C(c2ccc(Cl)cc2)N1CCCN1CCOCC1 (configuration not stated)
- HIV TAR-Tat: 0.89
- CDC25B-CDK2 inh: -1.94

(list continues)
canonical_smiles,HIV TAR-Tat,CDC25B-CDK2 inh
Cc1[nH][nH]c(=O)c1C(c1ccc(N(C)C)cc1)c1c(C)[nH][nH]c1=O,3.18,-1.11
S=c1[nH]nc(-c2ccc(Br)cc2)o1,1.69,-4.05
Cc1ccc(C2CC(c3cccs3)=NN2C(=O)CSc2nc3c(cnn3CCO)c(=O)[nH]2)cc1 (configuration not stated),1.55,nt
CC1(C)CC(=O)C2=C(C1)OC(N)=C(C#N)C21C(=O)N(CC(N)=O)c2ccccc21 (configuration not stated),nt,0.05
Cc1cc2nc(COC(=O)COc3ccccc3Cl)cc(=O)n2o1,0.25,nt
Cc1cc(-c2ccc(S(=O)(=O)Nc3cccc(Br)c3)s2)n[nH]1,-0.48,nt
Cn1cc(CCCC(=O)NCCCN2CCOCC2)c2ccccc21,2.12,nt
COc1ccc(-n2c(C)cc(CNS(=O)(=O)c3ccc4c(c3)oc(=O)n4C)c2C)cc1,-1.89,nt
Cc1ccc(OCc2nc(-c3ccc(C)cc3)no2)cc1,-5.69,-0.42
CCOC(=O)c1nc(N2CCc3ccccc32)c2oc3ccccc3c2n1,1.44,nt
COc1ccc(NC(=O)c2ccc([N+](=O)[O-])o2)cc1,-0.76,2.1
CCCSc1nc2c(c(=O)[nH]1)C(c1cccs1)C(C(=O)OCC)=C(C)N2 (configuration not stated),-0.69,0.14
COc1ccc(NC(=O)C2=CSCCO2)cc1OC,3.05,-0.94
CCc1cccc(C)c1Nc1c(-c2ccc(O)cc2)nc2cnccn12,-0.99,-1.31
Cc1ccc(C2CC(=O)Nc3c(-c4ccc(Cl)cc4)csc32)cc1 (configuration not stated),1.16,nt
O=C1C2ON(c3ccccc3)C(c3cccnc3)C2C(=O)N1c1ccc(Br)cc1 (configuration not stated),0.3,-1.33
CC1Cc2ccccc2N1C(=O)CN(C)S(=O)(=O)c1ccc2c(c1)C(C)(C)C(=O)N2C (configuration not stated),1.36,nt
c1ccc(-c2noc(NCCN3CCCc4ccccc43)n2)cc1,-1.99,nt
COc1ccc(OCc2nn3c(-c4ccccc4)nnc3s2)cc1,-0.21,-0.88
CCNC(=O)CC1C(=O)N(c2ccc(F)cc2)C(=O)N1CCc1sccc1C (configuration not stated),nt,-1.54
Clc1ccc2oc(-c3ccccn3)nc2c1,0.2,0.25
O=C(Nc1nc(-c2ccccn2)cs1)C1COc2ccccc2O1 (configuration not stated),1.94,nt
CN(CC(=O)N1CCN(c2ncccn2)CC1)S(=O)(=O)c1ccc2c(c1)c(=O)n(C)c(=O)n2C,nt,-0.47
Cc1ccc(C(=O)Cc2cc3ccccc3oc2=O)cc1C,nt,-2.13
COc1ccc(-c2cc(-c3cccnc3)c(C#N)c(N)n2)cc1,3.18*,-0.24
COc1cccc(-c2n[nH]c3c2C(c2ccc(F)cc2)NC3=O)c1 (configuration not stated),0.99,0.83
CCOC(=O)C1CCN(C(=O)C2CCN(c3nn4c(=O)c5c(nc4s3)CCCC5)CC2)CC1,0.98,nt
OCc1nc2ccccc2n1CC(O)COc1ccccc1 (configuration not stated),-1.36,-1.39
CCOC(=O)C1CCCN(C2=NS(=O)(=O)C(c3ccc(C)c(C)c3)=C2C)C1 (configuration not stated),1.22,-5.48
Nc1nc(NC2CCCCNC2=O)n[nH]1 (configuration not stated),nt,-1.86
O=C(NCc1ccccc1)Nc1ccc2snnc2c1,1.09,11.3*
Cc1csc2nc(COc3ccccc3)cc(=O)n12,-0.35,-1.19
CC(C)Sc1nc2c(c(=O)[nH]c(=O)n2C)n1CC(O)COc1ccccc1 (configuration not stated),nt,-1.45
CCC(CC)c1nn2c(=O)cc(COc3ccc(NC(=O)CC(C)C)cc3)nc2s1,0.43,-1
COC(=O)c1c(C)nn(C(=O)c2ccc(C(F)(F)F)cc2)c1-c1ccno1,nt,-1.25
CC1=CC(C)(C)Nc2ccc(OC(=O)c3ccc(Br)cc3)cc21,0.58,1.93
COc1ccc(C2C3=C(CCCC3=O)NC3=C2C(=O)CCC3)cc1Cl,2.46,-1.05
CCNC(=O)c1cnc2sc(N3CCCC3)nn2c1=O,0.32,nt
Cc1ccnc(Nc2nc(-c3sc(C)nc3C)cs2)c1,1.16,0.17
CCCCc1nn2c(C)c(-c3ccccc3)nc2s1,1.15,0.6
CCCOc1ccc(N2C(=O)CC(N3CCC(C)CC3)C2=O)cc1 (configuration not stated),-0.24,0.18
O=C(O)c1cc(-c2ccccc2)n(-c2ccccc2Cl)n1,nt,-0.29
Cc1ccc(C2CC(=O)c3cnc(Nc4ccc(C)cc4C)nc3C2)cc1 (configuration not stated),-1.46,-0.06
CCC12c3ccccc3C(c3ccccc31)C1C(=O)N(c3cccc(C(=O)OC)c3)C(=O)C12 (configuration not stated),nt,-3.53
O=C(NC1CCCCNC1=O)c1ccco1 (configuration not stated),nt,-0.41
O=C(Nc1nnc(C(F)(F)C(F)(F)C(F)(F)F)s1)c1cccs1,nt,-2.16
CCOC(=O)C1CCCN(c2ncnc3[nH]ncc23)C1 (configuration not stated),0.83,nt
Cc1cc(C)cc(NS(=O)(=O)c2ccc(-c3cc(C)[nH]n3)s2)c1,-0.41,nt
Cc1nn(CC(=O)NCCc2c[nH]c3ccccc23)c(=O)c2cc3sccc3n12,0.79,-0.32
c1cncc(C2=Nc3ccccc3NC(c3ccncc3)=N2)c1,-1.03,-2.07

(cont.)
canonical_smiles,HIV TAR-Tat,CDC25B-CDK2 inh
NS(=O)(=O)c1ccc(Nc2cc(-c3ccccc3)ncn2)cc1,-0.08,3.59
O=c1[nH]c2ccc(NCc3ccc(-c4ccccc4)o3)cc2[nH]1,-0.75,3.6
COc1ccc(CCn2c(=O)c(C#N)cc3c(=O)n4cc(C)ccc4nc32)cc1OC,-0.18,-1.98
Cc1nc2ccccn2c(=O)c1NC(=O)CC1CCCCC1,0.94,nt
COCCNC(=O)C(=O)Nc1c2c(nn1-c1ccc(Cl)cc1)CSC2,0.42,nt
O=C(NCc1cccs1)C(=O)NCc1n[nH]c(=O)c2ccccc12,-0.17,nt
Cc1cc(S(=O)(=O)N2CCC(N3CCOCC3)CC2)ccc1-n1cnnn1,1.7,-1.7
Cc1cc(C)cc(OCC(=O)N(Cc2ccc(C)o2)C2CCS(=O)(=O)C2)c1 (configuration not stated),-0.19,-2.16
Cc1cc(=O)[nH]c(SCc2cc(=O)c3cccc(Cl)c3[nH]2)n1,0.16,nt
Cc1ccc(C(=O)Cn2nc(-c3ccc(C)c(S(=O)(=O)N4CCCCC4)c3)ccc2=O)cc1,-0.43,0.83
O=C(Nc1ccccc1)Sc1ccccc1Cl,nt,0.69
CCCN1C(=O)C2(/C(=C(/O)c3ccc4c(c3)CC(C)O4)C(=O)C(=O)N2CCOC)c2ccccc21 (configuration not stated),0.9,-1.46
CCc1nc(-c2csc(S(=O)(=O)Nc3cccc(F)c3)c2)no1,-0.04,nt
Cc1ccc2[nH]c(CSc3nnc(COc4ccc(Cl)c(C)c4)n3C)cc(=O)c2c1,0.24,nt
O=C(Nc1cccc(Br)c1)N1CCC(CN2CCCC2)CC1,0.16,nt
